PrP 5UTR inh: inhibition of PrP 5' UTR reporter expression. inhibition, % (concentration not given with the values). 340,000 tested, 0.35% active. AID 488862. cell-based PrP 5' UTR mRNA reporter, plate reader;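 active = every replicate at 50% or more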;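 note: 0 = median of the neutral control wells; tested in H4 reporter cells; numbers are from one replicate; inactives centre near -14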
Sa ugtP lethal: growth inhibition of S. aureus ugtP deletion strain | growth inhibition, % (test concentration not listed) | S. aureus RN4220 ugtP deletion, OD600 growth, 16 h; some inactives read as strong as hits | 330,000 tested, 0.54% active;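 active = z-score under -3 and OD600 up to 0.15 on both plates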;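 note: plate controls were untreated wells for no effect and antibiotic for full effect; wells of about 80 µL received 100 nL stock; the first replicate is given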
Bead autofluor: flagged as autofluorescent in microsphere protease counterscreen; fluorescence intensity (test concentration not listed); compound autofluorescence counterscreen, microsphere flow cytometry; stronger effect = higher value; 360,000 tested, 3.1% active; AID 624483;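 active = at least 3 SD above the mean of all compounds, about 16000 in these data; inconclusive = too few beads counted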;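 note: 100 nL of 1 mM stock went into each well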
Sa RN4220 lethal: S. aureus RN4220 growth inhibition | OD600, 16 h | inhibition, % (concentration not given with the values) | 330,000 tested, 0.33% active | AID 1259311;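 active = z-score of -3 or lower and OD600 up to 0.18 on both plates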;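 note: plate controls were untreated cells for no effect and reference antibiotic for full effect; stock transfer was 100 nL into about 80 µL; one replicate is shown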
BJeLR viability: kills HRASV12-expressing BJeLR cells; BJeLR (HRASV12) viability, CellTiter-Glo ATP luminescence, 48 h; reference of the scale not given here; inhibition, % (test concentration not listed); 300,000 tested, 0.17% active;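 active = replicate mean above 50%; inconclusive = above 50% but judged a plate artefact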;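 note: 50 nL library stock added to about 25 µL; numbers are from one replicate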
Mtb hypoxia rep: Mtb hypoxia fluorescent reporter inhibition; M. tuberculosis hypoxia-regulated fluorescent reporter, fluorescence; fluorescence inhibition, % (concentration not given with the values); 300,000 tested, 0.1% active; AID 1159583;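 active = 35 to 45% if threefold the growth effect, above 45% if 1.5-fold the growth effect; inactive = the rest, general growth blockers included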;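 note: wells of about 50 µL received 100 nL stock; 0% = vehicle wells and 100% = reference inhibitor wells; whole bacteria with a GFP reporter of the hypoxia response; strong numbers were not always called active; many hits fall short of the cut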
Mtb hypoxia rep growth: also measured in Mtb hypoxia rep; calls as there; growth inhibition, %; measured here: M. tuberculosis growth (absorbance);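 0% = vehicle and 100% = reference antibiotic; read after six days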
* hit, by the source's call; u = inconclusive; x = no result given.

SMILES	PrP 5UTR inh	Sa ugtP lethal	Bead autofluor	Sa RN4220 lethal	BJeLR viability	Mtb hypoxia rep	Mtb hypoxia rep growth
COC(=O)c1ccc(NC(=O)Nc2ccc(C)cc2)cc1	-30	-20	3085	-2.6	0	1	8
Cn1nccc1C(=O)N1CCN(c2cccc(Cl)c2)CC1	-21	3	6489	1.3	3	11	-1
Cc1ccc2[nH]c3c(c2c1)CN(C(=O)CN(C)CC1OCCO1)CC3	-10	-5	10345	5.2	-1	12	15
N#CCc1ccc(NC(=O)c2ccc(S(=O)(=O)N3CCOCC3)cc2)cc1	-16	1	5199	2.0	-3	7	10
Cc1ccc(CN2CCN(/N=C/c3cccs3)CC2)cc1	-16	x	2031	x	21	x	x
CCCCCC(=O)Nc1nc(C)c(-c2csc(Nc3ccccc3OC)n2)s1	-11	9	3905	-2.5	1	11	11
COc1cc(Cl)c(C)cc1NC(=O)c1ccccc1NC(=O)CN1CCN(c2ccccn2)CC1	-11	-4	3048	-3.8	x	6	6
CCC1ON(C(C)C)C2c3nc4ccccc4n3CC12 (stereo unspecified)	8	6	4191	5.5	5	5	13
CSCCC(NC(=O)c1ccccc1)C(=O)NN=C(C)Cc1ccccc1 (stereo unspecified)	x	1	x	4.3	x	5	16
Cc1c(NC(=O)CC(O)(C(F)(F)F)C(F)(F)F)c(=O)n(-c2ccccc2)n1C	3	3	5293	9.8	8	9	20
Nc1nc(SCc2ccccc2)c2ncn(CCO)c2n1	7	-6	2947	0.0	x	-4	-2
CC(C)(C)c1ccc(C(=O)Nc2ccc(N3CCOCC3)cc2)cc1	-32	10	7474	10	-1	5	8
Oc1c(C(Nc2cccc(C(F)(F)F)c2)c2cccnc2)ccc2cccnc12 (stereo unspecified)	-19	-6	2511	14	1	3	-1
Cc1cccn2c(=O)c3cc(S(=O)(=O)c4ccc(Br)cc4)c(=N)n(C4CCCC4)c3nc12	-12	-5	5274	1.1	-10	1	0
COC(=O)c1nnn(-c2nonc2N)c1CSc1nnc(N)s1	-15	x	4517	x	-10	x	x
CCOC(=O)c1c(C)[nH]c(C(=O)N2CCC(C(=O)OCC)CC2)c1C	-22	0	5836	0.9	2	-6	-6
c1ccc(CCCN2CCN(CCOC(c3ccccc3)c3ccccc3)CC2)cc1	-10	0	5680	-3.5	12	3	7
COC(=O)C(NC(C)=O)(Nc1nc2c(s1)CCCC2)C(F)(F)F (stereo unspecified)	-3	0	5943	0.9	-3	x	x
Nc1c(N(Cc2ccco2)C(=O)c2ccc(Cl)cc2)c(=O)[nH]c(=O)n1Cc1ccccc1	-26	8	8503	-3.5	x	7	7
O=C(O)c1ccc(COc2ccc(CO)cc2Cl)cc1	-62	16	8064	7.8	2	13	15
CC(C)c1nnc(NC(=O)CCc2ccccc2)s1	-31	7	2934	1.5	-5	-4	-2
CCOc1ccccc1/C=C(\NC(=O)c1ccccc1)C(=O)NCCC(=O)O	-10	2	2036	2.9	-1	11	-2
O=C(N[C@@H](Cc1ccccc1)C(=O)N1CCC2(CC1)NCCc1[nH]cnc12)c1cccc(F)c1	-9	5	5631	0.9	-2	5	-6
CC(=O)Nc1ccc(S(=O)(=O)Nc2cccc(N(C)S(C)(=O)=O)c2)cc1	-8	0	4744	0.6	8	x	x
NNc1nc(-c2ccccc2)c2cc(Br)ccc2n1	-9	7	3945	11	1	5	9

(continued)
SMILES	PrP 5UTR inh	Sa ugtP lethal	Bead autofluor	Sa RN4220 lethal	BJeLR viability	Mtb hypoxia rep	Mtb hypoxia rep growth
CN(C(=O)c1ccc(S(=O)(=O)N2CCCC2)cc1)C1CCCCC1	-21	6	4640	3.9	4	-91	-34
CC1CCCN(CC(=O)c2ccc(Cl)c(Cl)c2)C1 (stereo unspecified)	-1	3	4131	2.6	-2	13	6
COc1cccc(CNC(=O)c2ccccc2NC(=O)C2=C(C)OCCS2)c1	-17	-4	5674	-1.7	3	-13	-4
Cc1cccc(C(=O)Nc2cccc(C(=O)N/N=C/c3ccccn3)c2)c1	-13	x	3890	x	3	x	x
O=C(Nc1cccc(S(=O)(=O)N2CCCCC2)c1)c1ccc([N+](=O)[O-])o1	-16	19	4945	34	-6	10	13
Cc1onc(-c2c(Cl)cccc2Cl)c1C(=O)Nc1ccc(C(N)=O)cc1	-7	6	3671	4.4	-1	0	1
Cc1ccc(NC(=O)C(C)Sc2nnc3ccccn23)cc1 (stereo unspecified)	-7	1	8708	2.0	x	-8	-11
COc1ccc(S(=O)(=O)N2CCCCCC2)cc1C(=O)N(C)Cc1ccc(C(C)(C)C)cc1	-11	x	5750	x	9	x	x
CCc1ccccc1NC(=O)CN(C)S(=O)(=O)c1ccc2c(c1)c(=O)n(C)c(=O)n2C	-7	7	5846	3.5	-5	12	10
CCc1nnc(NC(=O)CSc2nnc3c(C)cc4c(C)ccc(C)c4n23)s1	6	2	1961	-1.2	-4	-2	2
OCCCc1nc2n(n1)C(c1ccccc1)C=C(c1ccccc1)N2 (stereo unspecified)	-16	-19	6416	2.2	6	-4	5
COCCNC(=S)Nc1ccc(S(=O)(=O)Nc2ncccn2)cc1	-5	-3	2024	-6.5	-6	1	13
CCOc1cc(C(=O)Nc2cccc(C(C)=O)c2)ccc1OCC(=O)N1CCCCC1	-18	3	3742	3.9	6	-8	-4
CC1(C)C(=O)C2(CCCCC2)C(=O)OC1c1cccc([N+](=O)[O-])c1 (stereo unspecified)	-18	9	2464	4.0	-5	5	3
O=C(NCc1cn(-c2ccccc2)nc1-c1ccccc1)c1cccc([N+](=O)[O-])c1	-19	-18	2457	-2.1	0	5	-1
Cc1ccc(C)c(C(=O)CCC(=O)OCn2nnc3ccccc3c2=O)c1	-16	-2	3237	5.4	x	5	-4
CC(C)(c1ccccc1)c1ccc(OCC2CO2)cc1 (stereo unspecified)	-30	19	2961	4.4	-10	12	3
CC(=O)O[C@H]1[C@H](O)[C@H](Oc2c(O)c(C)c3c4c2[C@@H](C)CC[C@@H]4[C@@H](C)C[C@H]3C=C(C)C)O[C@@H](C)[C@H]1O	-19	-18	3006	-8.1	x	-3	-4
CCC1(c2ccccc2)NC(=O)N(CC(=O)NCc2ccccc2OC)C1=O (stereo unspecified)	-18	7	5674	1.2	-7	10	-2
CCNS(=O)(=O)c1ccc(C(=O)OCC(=O)N2CCCc3ccccc32)cc1	0	-3	3978	2.6	x	1	3
Cc1noc(NS(=O)(=O)c2ccc(NC(=O)CSc3nc4c(cc3C#N)CCCC4)cc2)c1C	-5	1	5094	1.7	-2	x	x
CCOC(=O)Cn1cnc2c(nnn2-c2cccc(Cl)c2)c1=O	-22	2	3687	6.5	0	7	8
CCN(c1ccc(C(O)(C(=O)OC)C(F)(F)F)cc1)S(=O)(=O)c1ccc(C)cc1 (stereo unspecified)	-20	7	10455	7.4	5	6	2
Cc1ccc(-c2nc(S(=O)(=O)c3ccc(C)cc3)c(SCC(=O)NCC3CCCO3)o2)cc1 (stereo unspecified)	-20	-1	5679	4.3	-12	-2	1
CC(=O)Nc1ccc(NC(=O)c2nc(S(=O)(=O)Cc3cccc(C)c3)ncc2Cl)cc1	8	x	5343	x	25	x	x

Compound profiles, as listed above. Order of screens: PrP 5UTR inh	Sa ugtP lethal	Bead autofluor	Sa RN4220 lethal	BJeLR viability	Mtb hypoxia rep	Mtb hypoxia rep growth
CCC1(c2ccccc2)NC(=O)N(CC(=O)NCc2ccccc2OC)C1=O (stereo unspecified) in the list: -18	7	5674	1.2	-7	10	-2
CCOc1cc(C(=O)Nc2cccc(C(C)=O)c2)ccc1OCC(=O)N1CCCCC1 in the list: -18	3	3742	3.9	6	-8	-4
COCCNC(=S)Nc1ccc(S(=O)(=O)Nc2ncccn2)cc1 in the list: -5	-3	2024	-6.5	-6	1	13

More results.
SMILES	PrP 5UTR inh	Sa ugtP lethal	Bead autofluor	Sa RN4220 lethal	BJeLR viability	Mtb hypoxia rep	Mtb hypoxia rep growth
Cc1ccc(OCC(=O)N2c3ccccc3CC2C)c([N+](=O)[O-])n1 (stereo unspecified)	-44	7	4325	-2.2	1	6	12
COc1ccc(NC2CCCN(C(=O)c3cn(C)c4ccccc34)C2)cc1 (stereo unspecified)	-6	10	5091	1.7	7	10	8
COc1ccccc1NS(=O)(=O)c1ccc2[nH]c(=O)[nH]c2c1	-37	3	3623	-0.5	-5	6	0
Cc1ccc(NC(=O)c2ccc(S(=O)(=O)N(C)c3ccccc3)cc2)cc1S(=O)(=O)N1CCOCC1	-1	-4	3201	0.1	x	9	9
O=[N+]([O-])c1ccc(Cl)c(NC(=S)N2CCCC2)c1	-69	13	3537	6.4	-3	7	11
Cc1onc(-c2c(Cl)cccc2Cl)c1C(=O)NN1CCCCCC1	-15	5	x	2.4	-1	4	10
COc1ccc(Oc2nc3ccccc3n(C)c2=O)cc1	-3	-4	16246*	-2.5	7	0	-2
O=C1NC(c2ccccc2)C(C(=O)c2cccs2)=C1O (stereo unspecified)	-9	2	3504	0.5	7	-7	-1
COc1ccc(N(CC(=O)NN=C2CCCCCCC2)S(=O)(=O)c2ccccc2)cc1	-28	7	8876	1.1	-3	10	4
C=C(C)COc1ccc(-c2nc(N)ncc2-c2ccc(Br)cc2)c(O)c1	x	-2	3833	-6.9	3	6	9
Cc1oc2c(C)c3oc(=O)c(CCC(=O)NCCCn4ccnc4)c(C)c3cc2c1C	-8	1	5290	1.1	8	x	x
Cc1cc(C)c2[nH]c(=O)c(CN(C(=O)C3CCCO3)C3CCCC3)cc2c1 (stereo unspecified)	x	1	x	-12	-1	0	3
Cc1cccc(C(=O)O/N=C(/c2ccccc2)c2ccncc2)c1	-7	x	4638	x	3	x	x
CCOc1ccc(Cn2ccnc2CCl)cc1[N+](=O)[O-]	-7	14	2350	5.4	-2	2	8
CC1CC(C)(C)NC(=S)N1CC(=O)NCc1ccc2c(c1)OCO2 (stereo unspecified)	-21	3	4191	7.2	-3	-6	7
Cc1nnsc1C(=O)N1CCCC(N2CCN(c3cccc(C(F)(F)F)c3)CC2)C1 (stereo unspecified)	-12	-2	5758	0.7	6	2	-1
Cc1cc(NS(=O)(=O)c2ccc(NC(=O)CSc3nc4ncc(Br)cc4[nH]3)cc2)nc(C)n1	-18	7	4304	3.9	3	7	3
COc1cc(OC)cc(C(=O)NCC(=O)Nc2ccc(OC)c(Cl)c2)c1	6	3	3825	-1.5	2	-2	-1
COc1ccc(CCNC(=O)CC(=O)N/N=C/c2ccc(C(=O)O)cc2)cc1OC	-1	x	3970	x	5	x	x
O=C(NN=C1C2CN3CCN(C2)CC1(c1ccccc1)C3)c1ccc(F)cc1	x	4	x	2.1	x	6	11
c1ccc(CSc2ccc(-c3cccnc3)nn2)nc1	-34	3	4339	15	-4	-1	4
C=C[C@](C)(CC[C@@]1(C)C(C)CC(OC2OC(C)C(OC3OC(COC(C)=O)C(O)C(O)C3O)C(O)C2O)[C@@]2(C)C(C)=CCCC12)OC1OC(C)C(O[C@@H]2O[C@@H](C)C(O)C(O)[C@H]2O)C(O)C1O (stereo partly specified)	-14	9	2878	6.6	x	0	2
COC(=O)c1c(-c2ccsc2)sc2ccc(-c3cc(OC)c(OC)c(OC)c3)cc12	14	-22	3816	2.4	x	5	11
Cc1ccc(C(=O)Nc2onc(C)c2C#N)cc1	8	1	2060	3.9	5	x	x
COc1ccc(OC)c(C=NNC(=O)c2ccncc2)c1	x	14	x	0.8	x	x	x
COc1ccccc1NC(=S)N(Cc1ccco1)Cc1cc2cccc(C)c2[nH]c1=O	6	0	7360	0.7	-16	13	-2
CCOc1cc(CNCC2CCCO2)cc(Br)c1OCC(N)=O (stereo unspecified)	-6	3	10065	1.1	-6	-4	9
CCN(c1ccccc1)S(=O)(=O)c1ccc(Cl)c(NC(=O)COC(=O)c2ccc(O)cc2)c1	-3	-5	2652	2.9	-11	1	-14
Cc1ccccc1-c1nnc(SCc2ccc(F)cc2)o1	-14	31	u	5.9	-1	0	-4
O=C(N/N=C/c1ccccc1C(=O)O)c1cccc(S(=O)(=O)Nc2cc(Cl)ccc2Cl)c1	-5	x	4511	x	2	x	x

In another format: entries from further up
Every second line gives: PrP 5UTR inh, Sa ugtP lethal, Bead autofluor, Sa RN4220 lethal, BJeLR viability, Mtb hypoxia rep, Mtb hypoxia rep growth
Cc1ccc(OCC(=O)N2c3ccccc3CC2C)c([N+](=O)[O-])n1 (stereo unspecified)
 : -44, 7, 4325, -2.2, 1, 6, 12
Cc1ccc(C(=O)Nc2onc(C)c2C#N)cc1
 : 8, 1, 2060, 3.9, 5, x, x
C=C(C)COc1ccc(-c2nc(N)ncc2-c2ccc(Br)cc2)c(O)c1
 : x, -2, 3833, -6.9, 3, 6, 9
